miR-21 reporter – raises the signal of a miR-21 reporter | HeLa miR-21 FLuc reporter, luciferase, 48 h | Potency, µM (series often up to 38.3 µM), without a hit: at the highest dose reporter change, positive = more light | 340,000 tested, under 10 active | AID 2288; active = well fitted rising curve with a large enough effect; inconclusive = small, poorly fitted or top-dose-only effect; inactive = no such curve, though single readings can be large or run the other way;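 also: % of control where 0% means no effect; miR-21 action dims this reporter so a rising signal means less miR-21 action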
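Luminescence from a firefly luciferase reporter carrying a miR-21 binding site downstream, stably expressed under a CMV promoter in HeLa cells that make miR-21 endogenously, reports miRNA modulation after 48 h compound exposure up to approximately 40uM final.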
Rango complex inh – prevents formation of the Rango-importin beta complex; Q14974; Rango CFP/YFP FRET sensor + importin beta, 45 min; Potency, µM (series often up to 92.2 µM), for inactives: at the top dose inhibition of complex formation; 0.031% of 340,000 active; AID 540263; active = rising FRET ratio curve, often small or poorly fitted; inconclusive = mostly compound fluorescence or quenching in the first reads; inactive = flat curves in all reads;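 also: potency is read from the fitted curve at half-maximal effect; 0% = DMSO wells and 100% = buffer wells lacking importin beta; nearly all actives have a fitted effect of over 15% in size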
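FRET biosensor (snurportin 1 IBB flanked by EYFP and cerulean), 50 nM, with compound 5 min, then 0.125 microM importin beta in PBS, 1 mM DTT, 0.02% Tween-20, 0.1% BSA. CFP/YFP ratio read after 45 min at room temperature; pre-read flags interference.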
GLA inh pH 4.5 – blocks human alpha-galactosidase A at pH 4.5; purified enzyme, 4-MU-alpha-Gal fluorescence, pH 4.5; P06280; activity change, negative = inhibition, % at 105 µM; 230,000 tested, under 10 active; inconclusive = small, poorly fitted or top-dose-only inhibition, or a rising curve; inactive = flat fitted curve, though single readings scatter; no compound was filed as active;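 also: 0% = full activity with enzyme and -100% = basal without enzyme; dose as in the result columns while the protocol names 77 µM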
Target sequence (P06280 whole entry, looked up): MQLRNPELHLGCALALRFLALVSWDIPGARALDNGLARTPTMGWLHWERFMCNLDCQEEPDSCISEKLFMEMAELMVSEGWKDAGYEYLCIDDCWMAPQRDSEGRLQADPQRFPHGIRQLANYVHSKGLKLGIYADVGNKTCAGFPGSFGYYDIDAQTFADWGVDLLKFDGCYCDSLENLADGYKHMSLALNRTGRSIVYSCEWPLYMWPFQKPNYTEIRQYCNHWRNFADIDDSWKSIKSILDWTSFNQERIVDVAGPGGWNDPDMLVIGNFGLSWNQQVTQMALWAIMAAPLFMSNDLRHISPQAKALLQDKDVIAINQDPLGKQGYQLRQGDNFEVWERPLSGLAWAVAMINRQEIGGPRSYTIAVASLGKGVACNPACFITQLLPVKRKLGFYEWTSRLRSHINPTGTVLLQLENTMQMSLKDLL
Rango dissoc inh – inhibitors of RanGTP-induced Rango-importin beta complex dissociation; 0.071% of 340,000 active; Potency, µM (series often up to 46.1 µM), without a hit: top-dose activity change, negative = inhibition; O95149+P62826; Biochemical FRET Rango-importin beta, RanGTP-induced dissociation; AID 540253; active means falling FRET ratio curve, often poorly fitted, with flat reads before Ran was added; inconclusive means other falling curves, or compound fluorescence or quenching; inactive means flat or rising ratio curve;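 also: potency is read from the fitted curve at half-maximal effect; % of control where 0% means no effect; nearly all actives have a fitted effect of over 45% in size; -100% = wells without RanGTP and RCC1; the record marks most hits as doubtful in a second field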
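Recombinant Rango FRET biosensor (EYFP–snurportin 1 IBB–cerulean CFP10) at 0.1 uM premixed with 0.25 uM importin beta in PBS, 1 mM DTT, 0.02% Tween-20, 0.1% BSA. Compound added 5 min; RanGTP-RCC1 (0.6 uM Ran, 2 mM GTP, 0.2 uM RCC1) then triggers release, read at 45 min.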
* hit, by the source's call; ? = inconclusive; · = no result given; & = joins results of further samples. Only part of the results is shown, so the mix of outcomes need not match the whole.

canonical_smiles	miR-21 reporter	Rango complex inh	GLA inh pH 4.5	Rango dissoc inh
CC(O)(P(=O)(O)O)P(=O)(O)O	·	3.4%	-14&3	0%
COc1cc(NC(=O)CN2CCC(C(N)=O)(N3CCCCC3)CC2)c(OC)cc1Cl	-1%	0.3%	3	-9%
CC(NC(=O)CCc1nnc(C2(c3ccc(Cl)cc3)CCC2)o1)C1CC1 (configuration not stated)	-19%	-0.6%	-5	0%
C#CC1CN(Cc2ccccc2)CC(C#C)N1C (configuration not stated)	-5%	0.7%	5	4%
CC(C(=O)N1CCN(Cc2ccc3c(c2)OCO3)CC1)c1ccc([N+](=O)[O-])cc1 (configuration not stated)	-9%	-1.4%	-7	2%
NC(=S)Nc1cccc(F)c1	0%	3.7%	-13	23%
O=C(Cc1ccc(Cl)cc1)NNC(=O)c1ccco1	-10%	1.6%	·	-3%
CCOC(=O)NC(=O)/C(C#N)=N\Nc1ccc(Cl)cc1	-3%	1.6%	1	?
CSc1nc2ncc(C#N)cn2n1	0%	0.2%	-1	2%
COc1ccc(N(CC(=O)NCCSCc2ccco2)S(=O)(=O)c2ccccc2)cc1Cl	6%	-2.0%	·	-15%
Fc1cccc(F)c1/C=N/Nc1ccccn1	-31%	-3.2%	0	-14%
Cc1ccc(S(=O)(=O)NCCC(=O)NNC(=O)COc2ccc(Br)cc2)cc1C	·	-3.2%	·	-11%
COCCCNC(=S)Nc1ccccc1[N+](=O)[O-]	-2%	-5.3%	2	-4%
CC(C)c1ccc(NC2CCCN(C(=O)c3ccnn3C)C2)cc1 (configuration not stated)	6%	2.1%	·	-4%
CCC(CC)c1nnc(NC(=O)COc2ccc3c(c2)OCO3)s1	14%	1.6%	·	8%
CC(O)CN=c1cc(-c2ccccc2)oc2ccc(Cl)cc12 (configuration not stated)	-16%	6.8%	4	0%
CC(C)CC(C(=O)N1CCOCC1)N1Cc2ccccc2C1=O (configuration not stated)	2%	1.4%	3	12%
COc1ccc(OC(C)C(=O)NC(C)c2ccccc2)cc1 (configuration not stated)	2%	0.1%	·	1%
CN(C)c1cccc(C(=O)OCC(=O)Nc2ccccc2Sc2ccccc2)c1	-5%	4.7%	-2	2%
O=C(COC(=O)c1ccc(O)cc1)Nc1cccc(S(=O)(=O)NC2=NCCC2)c1	·	1.3%	·	1%
Oc1c(CN2CCCCC2)cc(Br)c2cccnc12	22%	1.9%	-4	-13%
Cc1cc(SCC(=O)NC(=O)NCc2ccco2)nc2ccccc12	-8%	?	-4	-6%
O=c1oc2c(-c3ccc([N+](=O)[O-])cc3)cc(O)cc2s1	-5%	-1.9%	-7	-11%
CCOc1ccc(C2CC(=O)c3c([nH]c(C(=O)OC)c3C)C2)cc1OC (configuration not stated)	-3%	0.1%	1	14%
Cc1cc(NC(=O)CSc2cn(CCNC(=O)c3ccc(Cl)cc3)c3ccccc23)no1	20%	2.9%	6	1%
COc1ccccc1C(=O)Nc1ccc(S(=O)(=O)N2CCCCC2c2cccnc2)cc1 (configuration not stated)	22%	-3.7%	-2	-9%
c1ccc2cc(OCCCn3ccnc3)ccc2c1	-14%	0.3%	·	18%
Cc1nn(-c2ccccc2)c(C)c1C(=O)NCCc1ccc(Cl)cc1	0%	-0.6%	·	0%
CCN(CC)CC(=O)Nc1ccc2c(c1)N(C(=O)CN(CC)CC)c1ccccc1CC2	1%	?	3	?
Cc1cc(C(F)F)n2ncc(C(=O)NC3CCCCCC3)c2n1	-22%	-0.5%	4	0%

More records follow.
canonical_smiles	miR-21 reporter	Rango complex inh	GLA inh pH 4.5	Rango dissoc inh
COC(=O)CN1C(=O)[C@H]2[C@@H](/C=C/c3ccccc3)N3C(=O)CN(Cc4ccccc4)C(=O)[C@@]3(C)[C@H]2C1=O	2%	4.6%	·	0%
CN(C(=O)/C=C/c1ccc(F)cc1)C1CCCCC1	·	-1.1%	·	-17%
c1ccc2c(c1)[nH]c1c(N3CCN(C4CCCCC4)CC3)ncnc12	-2%	-0.1%	2	-15%
COc1ccc(C2/C(=C(\O)c3ccc4c(c3)OCCO4)C(=O)C(=O)N2Cc2cccnc2)cc1 (configuration not stated)	-2%	?	·	?
COc1ccc(/C=N/NC(=O)C(Cc2c[nH]c3ccccc23)NC(=O)OCC(C)C)cc1[N+](=O)[O-] (configuration not stated)	-28%	-1.4%	-9	0%
COc1cccc(CNC(=O)c2cccc(NC(=O)C3=C(C)OCCS3)c2)c1	18%	2.2%	·	-2%
CCOc1ccc(OCC(=O)Nc2ccccc2C(F)(F)F)cc1	-38%	-0.9%	-15	-8%
O=C(CNC(=O)c1ccco1)Nc1ccc(N2CCCCCC2)cc1	·	-2.8%	·	21%
Cc1cccc(CCNC(=O)CNS(=O)(=O)c2ccc3nc(C)sc3c2)c1	1%	2.6%	·	-6%
CCOC(=O)N1CCN(C(=S)NC(=O)C23CC4CC(CC(C4)C2)C3)CC1	-4%	2.2%	10	1%
Cc1occc1-c1nnc(SCC(=O)N2CCOCC2)o1	-17%	-1.4%	9	15%
CC1CCCN(C(=O)c2nn(C)c3c2CS(=O)(=O)c2ccccc2-3)C1 (configuration not stated)	1%	-0.6%	·	0%
CCOc1ccc(CCNC(=O)c2nn(C)c3c2CS(=O)(=O)c2ccccc2-3)cc1OCC	11%	2.5%	·	-13%
Clc1ccc(-c2cn3ccccc3n2)cc1	-14%	1.7%	·	7%
COc1ccc(NC(=O)CN(C)CC(=O)Nc2sc3c(c2C#N)CCC3)cc1	·	-0.1%	·	0%
COc1ccc(NC(=O)c2cccc3ccccc23)cc1	-1%	1.3%	·	14%
CNC(=O)c1[nH]cnc1C(=O)Nc1ccc(OC)cc1	-7%	-1.2%	-12	-16%
CCCC[C@@H](CNC)NC[C@H](Cc1ccc(O)cc1)NCCc1ccc(OCC)cc1	?	0.6%	·	-2%
COc1cccc(C2CC(c3ccc(C(C)C)cc3)n3nc(N)nc3N2)c1 (configuration not stated)	-9%	5.8%	-5	2%
Nc1nc(NCCO)nc(NCc2ccccc2)c1[N+](=O)[O-]	-20%	0.0%	·	-2%
NC(=O)CC1C(=O)N(c2ccccc2)C(=S)N1NC(=O)c1ccc(Br)cc1 (configuration not stated)	-67%	3.1%	·	3%
O=c1c(-c2ccc(O)cc2)coc2cc(O)cc(O)c12	-30%	2.1%	-8&0&-4&3&-4	2%
CCOC(=O)C1=C(C)N=C(SC)N(C)C1c1ccccc1 (configuration not stated)	-1%	1.8%	-4	-9%
COc1cccc(C2=CC(=O)C[C@H](c3ccc(F)cc3)C2)c1OC	·	0.3%	·	1%
Nc1nonc1-n1nnc(C(=O)N/N=C/c2cccnc2)c1CSc1ccc(Cl)cc1	11%	-0.6%	·	21%
Cc1cc(NC(=O)CS(=O)(=O)c2cn(Cc3ccccc3Cl)c3ccccc23)no1	10%	3.0%	-8	0%
N=c1c2c(n(Cc3ccccc3)c3c1CCC3)CCC2	?	4.6%	0	-4%
O=C(c1cccc(S(=O)(=O)N2CCCCCC2)c1)N1CCN(c2ccccc2F)CC1	14%	1.8%	·	-2%
COc1ccc(NC(C#N)c2ccccc2OCc2ccccc2)cc1 (configuration not stated)	-5%	4.0%	-15	-14%
O=C(CS(=O)CC(=O)N(CC(=O)NC1CCCC1)c1ccc2c(c1)OCCO2)Nc1ccc(F)cc1 (configuration not stated)	-1%	2.5%	-17	13%

(list continues)
canonical_smiles	miR-21 reporter	Rango complex inh	GLA inh pH 4.5	Rango dissoc inh
Cc1ccc(-n2nnnc2-c2cnc3cc4c(cc3c2C)OCO4)cc1	-2%	0.3%	-12	2%
CCN(CC)S(=O)(=O)c1ccc(NC(=O)COc2cccc(-n3cnnn3)c2)cc1	·	-1.2%	·	8%
C#CCN1C(=O)C(O)(CC(=O)c2cc(OC)ccc2OC)c2ccccc21 (configuration not stated)	-9%	2.1%	-4	-10%
CC1CCCCN1C(=O)COC(=O)CSc1ccc(C(N)=O)cc1[N+](=O)[O-] (configuration not stated)	·	-0.2%	·	-12%
CCc1cc(C(=O)N/N=C/c2ccc(O)cc2)c2ccccc2n1	16%	3.2%	·	14%
CCOC(=O)c1c(CN(C)C)oc2cc(CN(C)C)c(O)c(CSc3ccccc3)c12	6%	-0.9%	-13	0%
COc1ccc(S(=O)(=O)N2CCOCC2)cc1NC(=O)CSc1cc(C)ccc1C	·	-0.5%	·	-12%
O=C(O)CN1C(=O)/C(=C\c2cccc(OCc3ccccc3F)c2)SC1=S	-20%	-1.0%	·	-8%
CC(=O)c1cccc(CN2CCC(n3nccc3NC(=O)CCCc3ccccc3)CC2)c1	3%	3.4%	·	-4%
CC(=O)NCCc1ccc(S(=O)(=O)NCc2ccc3c(c2)OCO3)cc1	-5%	-1.9%	-1	6%
CC(C)(C)N/N=C1\CC(c2ccccc2)Oc2ccccc21 (configuration not stated)	-4%	-2.4%	-25	-21%
Cc1ccc(SCCC(=O)N2CCC(C)CC2)cc1	-75%	-0.1%	-13	-3%
CC1CC(C)CN(C(=O)c2ccc(NS(=O)(=O)c3ccc4[nH]c(=O)[nH]c4c3)cc2)C1 (configuration not stated)	·	?	·	0%
Cn1c(Cc2ccccc2)nnc1SCC(=O)NCCc1ccccc1	-2%	-1.1%	-11	4%
COc1ccc(Br)cc1CNCCSc1nnnn1C	-5%	-0.2%	1	-4%
CCN(CC)CCCNC(=O)CC1Sc2ccccc2NC1=O (configuration not stated)	-1%	2.0%	-3	2%
Clc1ccc(-c2cccs2)nn1	-8%	?	4	-10%
C=CCc1c(N(CC)CC)nc(C)[nH]c1=O	2%	-0.6%	0	-6%
NC(=O)c1oc2ccccc2c1NC(=O)CCc1ccccc1	-11%	-0.8%	5	15%
CCC(=O)Nc1nc2ccc([N+](=O)[O-])cc2s1	7%	?	-1	-14%
COC(=O)c1c(-c2ccc(C)cc2)csc1NC(=S)NC(=O)c1ccc(F)cc1	-2%	-1.3%	-11	7%
Cc1ccccc1Nc1nc(N)nc(CSc2ccccc2)n1	-63%	1.1%	-7	1%
Nc1ccc(-n2nncc2-c2ccccc2)cc1	-11%	-0.3%	-8	-6%
CCCCn1c(SCC(=O)Nc2cc(C)on2)nnc1-c1cccs1	1%	-4.4%	1	-12%
CCN(c1ccc(NC(=O)COC(=O)c2ccc3ccccc3n2)cc1)C(C)C	-6%	3.8%	1	0%
CCN(CC)c1ccc(/C=N/N2CCOCC2)cc1	-36%	0.1%	2	19%
O=C(Oc1ccc(N2C(=O)CCC2=O)cc1)c1ccco1	-3%	0.7%	-8	0%
CCn1c(SCC(=O)N2CCc3ccccc32)nnc1-c1ccco1	-8%	-4.3%	-4	3%
CCOC(=O)Cn1c(=NC(=O)c2nc3ccccc3s2)sc2cc(S(N)(=O)=O)ccc21	-7%	1.0%	-1	-4%
CC(C)C1C(C#N)=C(N)SC(N)=C1C#N	4%	-0.8%	-1	-10%

(further entries)
canonical_smiles	miR-21 reporter	Rango complex inh	GLA inh pH 4.5	Rango dissoc inh
COc1ccc(C(=O)Nc2cc(C(=O)O)cc(C(=O)O)c2)cc1Cl	-1%	1.0%	11	39%
CCOC(=O)c1cc(C(=O)Nc2cccc(C)c2)nn1C	-64%	1.2%	-1	-9%
O=C(NCC1CCCO1)c1ccc(Br)c(S(=O)(=O)N2CCOCC2)c1 (configuration not stated)	·	1.0%	·	-4%
Cc1ccc(-c2nnc(SCC(=O)N3c4ccccc4NC(=O)C3(C)C)n2N)cc1	0%	-4.4%	0	1%

Some of these compounds in order of the GLA inh pH 4.5 value, lowest first:
SMILES | GLA inh pH 4.5
CCOC(=O)c1cc(C(=O)Nc2cccc(C)c2)nn1C | -1
Cc1ccc(-c2nnc(SCC(=O)N3c4ccccc4NC(=O)C3(C)C)n2N)cc1 | 0
COc1ccc(C(=O)Nc2cc(C(=O)O)cc(C(=O)O)c2)cc1Cl | 11

Screens deposited in PubChem by National Center for Advancing Translational Sciences (NCATS).
